TRPML1 blocker – qHTS for Inhibitors of the Human Mucolipin Transient Receptor Potential 1 (TRPML1) | Mucolipin-1 (Homo sapiens), Q9GZU1 | TRPML1-inducible cells, Ca2+ dye fluorescence, FDSS; active compounds read low; inhibition of EC80 agonist-evoked calcium signal | activity change, negative = inhibition, % (test concentration not listed) | 390,000 tested, 0.02% active | AID 624415, 2012; in the data active means activity change below about -50%; inconclusive means about -30% to -50%; inactive means above about -30%;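 also: stimulus is agonist 54-4 at its EC80 concentration; % is scaled to controls: 0 for no effect and ±100 for the full control effect; compound concentration not given in the record; the text of the record puts the active cut at -80%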
Target sequence (Q9GZU1 whole entry, looked up): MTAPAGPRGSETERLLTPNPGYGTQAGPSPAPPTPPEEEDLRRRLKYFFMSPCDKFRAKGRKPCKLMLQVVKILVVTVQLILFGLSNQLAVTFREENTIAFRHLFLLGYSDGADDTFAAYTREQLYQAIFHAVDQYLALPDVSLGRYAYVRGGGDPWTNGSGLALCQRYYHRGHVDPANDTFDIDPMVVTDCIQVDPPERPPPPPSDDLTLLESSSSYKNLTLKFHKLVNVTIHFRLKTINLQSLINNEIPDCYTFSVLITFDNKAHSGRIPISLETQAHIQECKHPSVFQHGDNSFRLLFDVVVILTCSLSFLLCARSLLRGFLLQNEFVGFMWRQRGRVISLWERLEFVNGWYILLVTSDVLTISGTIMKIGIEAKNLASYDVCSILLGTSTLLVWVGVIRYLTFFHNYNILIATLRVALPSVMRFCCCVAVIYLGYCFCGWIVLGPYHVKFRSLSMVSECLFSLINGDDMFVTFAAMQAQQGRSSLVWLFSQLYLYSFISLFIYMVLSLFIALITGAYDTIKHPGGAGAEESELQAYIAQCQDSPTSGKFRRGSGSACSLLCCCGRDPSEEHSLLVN
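Calcium fluorescence in TRPML1-DL cells induced overnight with Tet: a 110 s read after compound pin addition, then a 110 s antagonist read after challenge with 54-4 at 4 uM final (EC80).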
D2 potentiator – Beta-Arrestin HTS for Positive Allosteric Modulators of the Human D2 Dopamine Receptor: Potentiators | D(2) dopamine receptor (Homo sapiens), P14416 | DiscoveRx D2 beta-arrestin cells, luminescence, 90 min; 100% = 57 uM dopamine signal | potentiation, % (concentration not given with the values) | 360,000 tested, 0.23% active; active = potentiation of 50% or more; inconclusive = 30% to 50%; inactive = 30% or less;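 also: compound concentration not given in the record; tested on top of an EC20 dose of dopamine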
Target sequence (P14416 whole entry, looked up): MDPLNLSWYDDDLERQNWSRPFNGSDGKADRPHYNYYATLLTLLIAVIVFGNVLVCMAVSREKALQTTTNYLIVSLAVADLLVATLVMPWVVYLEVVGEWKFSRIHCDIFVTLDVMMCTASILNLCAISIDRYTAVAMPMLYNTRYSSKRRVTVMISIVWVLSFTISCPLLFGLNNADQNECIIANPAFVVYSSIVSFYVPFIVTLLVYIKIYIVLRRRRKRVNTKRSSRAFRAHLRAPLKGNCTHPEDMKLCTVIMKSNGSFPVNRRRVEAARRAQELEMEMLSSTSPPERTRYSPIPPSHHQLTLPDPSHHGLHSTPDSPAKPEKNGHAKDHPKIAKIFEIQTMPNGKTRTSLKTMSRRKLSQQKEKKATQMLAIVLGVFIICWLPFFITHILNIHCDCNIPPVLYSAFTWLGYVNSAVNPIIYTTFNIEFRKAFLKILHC
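D2 cells co-treated with compound plus 50 nM dopamine (EC20) for 90 min at 37 deg C to detect potentiation. Beta-arrestin recruitment was read as enzyme-fragment luminescence after 1 h at ambient temperature. Full response was set by 57 uM dopamine.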
TRPML1 ag – qHTS for Agonists of the Human Mucolipin Transient Receptor Potential 1 (TRPML1); Mucolipin-1 (Homo sapiens), Q9GZU1; TRPML1-expressing cells, Ca2+ dye fluorescence, FDSS; host cell line not named in the record; reference of the full effect not given here; activation, % (no concentration beside the values); 410,000 tested, 0.12% active; AID 624414, 2012; in the data active = activation above about 50%; inconclusive = about 30% to 50%; inactive = below about 30%; also: 0% is about no effect; the text of the record puts the active cut at 80%
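TRPML1-DL cells, Tet-induced overnight (~16 h, 37 degrees C), loaded 45-90 min at room temperature with Ca8 no-wash calcium dye plus quencher. FDSS fluorescence: 10 s baseline, compound pin-transfer, 110 s agonist read, then EC80 54-4 (4uM final) and 110 s antagonist read.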
Six1-Eya2 inh – qHTS Assay for Inhibitors of the Six1/Eya2 Interaction; Homeobox protein SIX1 (Homo sapiens) + Protein phosphatase EYA2 (Homo sapiens), …; AlphaScreen GST-Six1/His-Eya2 binding, biochemical; active compounds read low; control for the full effect not named in the record; activity change, % (concentration not given with the values); 360,000 tested, 0.56% active; in the data active = activity change below about -65%; inconclusive = about -30% to -65%; inactive = above about -30%; also: % is scaled to controls: 0 for no effect and ±100 for the full control effect
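AlphaScreen luminescence read after one hour at 37 °C in darkness. Pin-transferred compounds met GST-Six1 and His-Eya2 protein (5X stock 250 nM/500 nM) plus glutathione donor and Ni-chelate acceptor beads (5X, 50 ug/mL).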
D2 agonist – Beta-Arrestin HTS for Positive Allosteric Modulators of the Human D2 Dopamine Receptor: Agonists | activation, % (no concentration beside the values) | 360,000 tested, 0.084% active | AID 624465, 2012 | D(2) dopamine receptor (Homo sapiens), P14416 | DiscoveRx PathHunter D2 beta-arrestin, luminescence, 90 min; 100% = 57 uM dopamine signal; in the data active = activation above about 40%; inconclusive = about 15% to 40%; inactive = below about 15%; also: compound concentration not given in the record; the text of the record calls up to 30% inactive
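DiscoveRx PathHunter D2 beta-arrestin cells (2,100/well) attached overnight, then compound-stimulated 90 min at 37 C in HBSS/10 mM HEPES/0.1% Tween-20 buffer; beta-galactosidase complementation read by luminescence after 1 h at ambient temperature. Dopamine 57 uM final (EC100) as control.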
PINK1 expr mod – A Quantitative High throughput Screen to Identify Chemical Modulators of PINK1 Expression | 410,000 tested, 0.2% active | PINK1 immunofluorescence, high-content cytometry, 24 h | Potency, µM (series often up to 76.6 µM), for inactives: at the top dose activation (PINK1 increase), hits mostly activators | AID 624263, 2012; active = well fitted activation curve with a large enough effect; inconclusive = small, poorly fitted or top-dose-only effect; inactive = flat fitted curve, though single readings scatter; cell line not stated here;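 also: potency is read from the fitted curve at half-maximal effect; % of control where 0% means no effect; nearly all actives have a fitted effect of over 65% in size; a mitochondrial uncoupler was the plate control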
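Fluorescence from anti-PINK1 antibody, together with nuclear and cell stains, was scanned on a laser-scanning cytometer. Before staining, stable-line cells were incubated 24 hours with compounds at 5 concentrations; primary antibody 12 h at 10 degrees C.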
Active calls of the source: *; [ ] = dose if it differs, or a comment.

For COc1ccc(NC(=O)c2c(NCc3cccc(F)c3)sc3c2CCCC3)c(OC)c1 the results were TRPML1 blocker 27, TRPML1 ag -0.3 and PINK1 expr mod 11%.
Screening COc1ccc(CCN2C(=O)CC(NCCc3ccc(S(N)(=O)=O)cc3)C2=O)cc1OC (configuration not stated) returned TRPML1 blocker -4, D2 potentiator -7, TRPML1 ag -0.4, Six1-Eya2 inh 0, D2 agonist -3.6 and PINK1 expr mod -3.6%.
CCOC(=O)[C@@H]1[C@H]2COc3ccc(Br)cc3[C@H]2N2C(=O)N(c3cccc(F)c3)C(=O)[C@]12C was read as TRPML1 blocker 1, D2 potentiator -2, TRPML1 ag 1.6, Six1-Eya2 inh -6, D2 agonist 1.1 and PINK1 expr mod 0.7%.
Screening Cc1ccccc1Nc1nn2c(=O)c3ccc(C(=O)NCc4ccccc4)cc3nc2s1 returned TRPML1 blocker -6, TRPML1 ag 0.1 and PINK1 expr mod inconclusive.
For COc1ccc(C2(C)NC(=O)N(CC(=O)NC(C)c3ccc(CC(C)C)cc3)C2=O)cc1 (configuration not stated) the results were TRPML1 blocker -20, D2 potentiator 1, TRPML1 ag 1.2, Six1-Eya2 inh -5, D2 agonist -0.7 and PINK1 expr mod 0.7%.
For COc1cc(-c2noc(C)c2C(=O)N[C@@H](CO)Cc2ccccc2)cc(OC)c1OC the results were TRPML1 blocker -4, TRPML1 ag 0.1, Six1-Eya2 inh -7, D2 agonist -1.6 and PINK1 expr mod 1.0%.
Screening CCCc1nnc(NC(=O)Cn2c(=O)oc3cc(Br)ccc32)s1 returned TRPML1 blocker 13, D2 potentiator 19, TRPML1 ag 7.1, Six1-Eya2 inh 3, D2 agonist -2.4 and PINK1 expr mod 7.0%[38.3 µM].
For O=C1N/C(=C\c2ccc(O)cc2)C(=O)c2ccccc21 the results were TRPML1 blocker 4, D2 potentiator 14, TRPML1 ag 16, Six1-Eya2 inh 6, D2 agonist 5.4 and PINK1 expr mod 2.7%[38.3 µM].
For CC1CC(C)CN(C(=O)C(C)N2CCN(S(=O)(=O)c3ccc(C(F)(F)F)cc3)CC2)C1 (configuration not stated) the results were TRPML1 blocker 18, D2 potentiator 3, TRPML1 ag 0.4, Six1-Eya2 inh 5, D2 agonist -1.6 and PINK1 expr mod 1.2%.
`CC(=O)C1=C(O)C(=O)N(Cc2cccnc2)C1c1ccc(Cl)cc1` (configuration not stated) gave TRPML1 blocker 4, D2 potentiator -11, TRPML1 ag 0.1, Six1-Eya2 inh 2, D2 agonist -2.7 and PINK1 expr mod 6.1%[38.3 µM].
For CCC(CC)C(=O)NCc1ccccc1OC the results were TRPML1 blocker -1, D2 potentiator -4, TRPML1 ag 0.2, Six1-Eya2 inh 6, D2 agonist -2.2 and PINK1 expr mod 5.7%[38.3 µM].
For COc1ccc(C(=O)/C(=C/c2cccs2)c2nc3ccccc3o2)cc1 the results were TRPML1 blocker 29, D2 potentiator -16, TRPML1 ag 3.3, Six1-Eya2 inh -17, D2 agonist -1.6 and PINK1 expr mod -1.0%.
Screening C/C(CCc1ccc2c(c1)OCO2)=N\N=C(/N)SC1CC(=O)N(c2ccc(Cl)cc2)C1=O (configuration not stated) returned TRPML1 blocker 12, D2 potentiator -1, TRPML1 ag -0.3, Six1-Eya2 inh -5 and D2 agonist -1.4.
Screening CCCN(CC(=O)Nc1ccccc1C)C(=O)COc1c(Cl)cccc1Cl returned TRPML1 blocker 1, D2 potentiator -19, TRPML1 ag -0.2, Six1-Eya2 inh -3, D2 agonist -0.9 and PINK1 expr mod -1.4%.
Screening COc1ccccc1/C=N/NC(=O)CN(C1=NS(=O)(=O)c2ccccc21)c1ccccc1 returned TRPML1 blocker -4, D2 potentiator -7, TRPML1 ag 1.4, Six1-Eya2 inh -12, D2 agonist 0.2 and PINK1 expr mod -2.3%.
For CN1c2ccsc2C(O)=C(C(=O)Nc2ccccc2)S1(=O)=O the results were TRPML1 blocker 3, D2 potentiator -5, TRPML1 ag -0.2, Six1-Eya2 inh -2, D2 agonist -3.6 and PINK1 expr mod 1.3%.
`CC(=O)c1ccc(OC2(C)CCN(Cc3cccn3-c3nccs3)C2)cc1` (configuration not stated) gave D2 potentiator -7, TRPML1 ag -0.7, Six1-Eya2 inh -10, D2 agonist -1.8 and PINK1 expr mod 0.4%.
CCCC(=O)Nc1c(C(=O)OCC)oc2ccccc12 was read as TRPML1 blocker -12, D2 potentiator -31, TRPML1 ag -1.2, Six1-Eya2 inh 0, D2 agonist 1.8 and PINK1 expr mod 0.9%.
Screening CCN(CC)S(=O)(=O)c1cccc(C(=O)NC(C(=O)Nc2nnc(C)s2)C(C)C)c1 (configuration not stated) returned TRPML1 blocker -5, D2 potentiator 2, TRPML1 ag -1.0, Six1-Eya2 inh -2, D2 agonist -1.4 and PINK1 expr mod 1.3%.
Screening O=[N+]([O-])c1cccnc1N1CCN(c2ccccc2F)CC1 returned TRPML1 blocker 11, D2 potentiator -7, TRPML1 ag 0.3, Six1-Eya2 inh inconclusive, D2 agonist -1.8 and PINK1 expr mod 0.9%.
For N=C(N1CCCc2ccccc21)N1CCCc2ccccc21 the results were TRPML1 blocker 15, D2 potentiator -10, TRPML1 ag -0.2, Six1-Eya2 inh -2, D2 agonist -2.7 and PINK1 expr mod -0.9%.
Screening CCN(Cc1ccc(Cl)s1)C(=O)c1cccc(OCc2c(C)noc2C)c1 returned TRPML1 blocker 20, D2 potentiator 8, TRPML1 ag 5.3, Six1-Eya2 inh 3, D2 agonist 5.2 and PINK1 expr mod 8.5%.
`COc1ccc(OC)c2c(N)c(C#N)c(C(F)(F)C(F)(F)F)nc12` gave TRPML1 blocker 15, D2 potentiator -7, TRPML1 ag -0.4, Six1-Eya2 inh -1, D2 agonist 0.0 and PINK1 expr mod -0.6%.
For COc1cccc(CNS(=O)(=O)c2csc(C(N)=O)c2)c1 the results were TRPML1 blocker -17, D2 potentiator 10, TRPML1 ag -0.9, Six1-Eya2 inh 3, D2 agonist 0.2 and PINK1 expr mod 2.2%.
COC(CN(C(=O)CCl)C(C(=O)NC1CCCCC1)c1ccc(C)cc1)OC (configuration not stated) was read as TRPML1 blocker 20, D2 potentiator -8, TRPML1 ag 1.7, Six1-Eya2 inh -1, D2 agonist -1.7 and PINK1 expr mod -2.2%.
O=C(/C=C/c1ccc2c(c1)OCO2)NCCSCc1cccc(Cl)c1 was read as TRPML1 blocker 5, D2 potentiator -13, TRPML1 ag 3.1, Six1-Eya2 inh -6, D2 agonist -3.8 and PINK1 expr mod 4.7%.
For CNc1nc(N)nc(-c2cc(Cl)ccc2OC)n1 the results were TRPML1 blocker 2, D2 potentiator -5, TRPML1 ag 0.4, Six1-Eya2 inh -3, D2 agonist -4.6 and PINK1 expr mod 1.7%.
For COc1cccc(CN2CCN(C(=O)c3ccc(-c4ccccc4)cc3)CC2)c1OC the results were TRPML1 blocker -3, D2 potentiator -4, TRPML1 ag 2.9, Six1-Eya2 inh 0, D2 agonist -2.9 and PINK1 expr mod -0.8%.
`CC(C)(C)c1cc(NC(=O)CSc2nncs2)n(-c2ccccc2)n1` gave TRPML1 blocker 22, D2 potentiator -5, TRPML1 ag 1.6, Six1-Eya2 inh -5, D2 agonist 1.8 and PINK1 expr mod 3.9%.
Screening CCN(CC)C(=O)C1=C(C)N(Cc2ccc(C(C)(C)C)cc2)C(=O)C(CC(=O)NCc2cccs2)C1 (configuration not stated) returned Six1-Eya2 inh -1, D2 agonist -0.2 and PINK1 expr mod -0.1%.

Reprinted at random: two compounds from above.
CCCC(=O)Nc1c(C(=O)OCC)oc2ccccc12 was read as TRPML1 blocker -12, D2 potentiator -31, TRPML1 ag -1.2, Six1-Eya2 inh 0, D2 agonist 1.8 and PINK1 expr mod 0.9%.
For COc1cccc(CNS(=O)(=O)c2csc(C(N)=O)c2)c1 the results were TRPML1 blocker -17, D2 potentiator 10, TRPML1 ag -0.9, Six1-Eya2 inh 3, D2 agonist 0.2 and PINK1 expr mod 2.2%.

(further entries)
For O=[N+]([O-])c1ccc(N/N=C/c2cccc(O)c2O)c(S(=O)(=O)N2CCOCC2)c1 the results were TRPML1 blocker 2, D2 potentiator -29, TRPML1 ag -0.5, Six1-Eya2 inh -21, D2 agonist -17 and PINK1 expr mod 12%.
Screening C=CCCC(=O)Nc1ccc(Br)cn1 returned TRPML1 blocker -13, D2 potentiator -5, TRPML1 ag 0.2, Six1-Eya2 inh 13, D2 agonist 0.3 and PINK1 expr mod 2.7%.
`CCC(C)N(C(=O)COC(=O)c1ccc(N)c([N+](=O)[O-])c1)C1CCS(=O)(=O)C1` (configuration not stated) gave TRPML1 blocker 2, D2 potentiator 1, TRPML1 ag -0.5, Six1-Eya2 inh -2, D2 agonist -1.7 and PINK1 expr mod 0.1%.
COc1cc(CN2CCN(C(=O)c3cccc4ccccc34)CC2)cc(OC)c1OC was read as TRPML1 blocker -1, D2 potentiator -22, TRPML1 ag -0.7, Six1-Eya2 inh 2, D2 agonist -4.5 and PINK1 expr mod -0.9%.
Screening C=CCn1c(=O)/c(=C/c2ccc(F)cc2)s/c1=C(\C#N)c1nnc2n1CCCCC2 returned TRPML1 blocker -8, D2 potentiator -3, TRPML1 ag -0.5, Six1-Eya2 inh -2, D2 agonist -2.9 and PINK1 expr mod 3.1%[38.3 µM].
Screening O=C(c1ccccc1F)N1CCN=C1SCc1cccnc1 returned TRPML1 blocker 1, D2 potentiator -5, TRPML1 ag 0.1, Six1-Eya2 inh 0, D2 agonist -0.1 and PINK1 expr mod -0.1%.
For COc1ccccc1OCC(=O)Nc1ccc(S(=O)(=O)N2CCCCCC2)cc1 the results were TRPML1 blocker 1, D2 potentiator -31, TRPML1 ag 0.8, Six1-Eya2 inh -14, D2 agonist -0.5 and PINK1 expr mod 0.4%[38.3 µM].
`Cc1ccc(N2C(=O)c3ccc(C(=O)N4CCN(Cc5ccccc5)CC4)cc3C2=O)cc1` gave TRPML1 blocker 80, D2 potentiator -1, TRPML1 ag 0.7, Six1-Eya2 inh -7, D2 agonist -1.5 and PINK1 expr mod -0.8%.
Screening CC(C)NC(=O)C1Cc2c(-c3ccc(Cl)cc3)ccnc2O1 (configuration not stated) returned D2 potentiator 1, TRPML1 ag -0.9, Six1-Eya2 inh 1, D2 agonist 3.0 and PINK1 expr mod 0.4%.

Bioassay records: PubChem, National Center for Advancing Translational Sciences (NCATS)
